TRPML1 agonist: qHTS for Agonists of the Human Mucolipin Transient Receptor Potential 1 (TRPML1); 0.12% of 410,000 active; activation, % (test concentration not listed); Mucolipin-1 (Homo sapiens), Q9GZU1; AID 624414, 2012; TRPML1-expressing cells, Ca2+ dye fluorescence, FDSS; host cell line not named in the record; reference of the full effect not given here; in the data active = activation above about 50%; inconclusive = about 30% to 50%; inactive = below about 30%; further: 0% is about no effect; the text of the record puts the active cut at 80%
Target sequence (Q9GZU1 whole entry, looked up): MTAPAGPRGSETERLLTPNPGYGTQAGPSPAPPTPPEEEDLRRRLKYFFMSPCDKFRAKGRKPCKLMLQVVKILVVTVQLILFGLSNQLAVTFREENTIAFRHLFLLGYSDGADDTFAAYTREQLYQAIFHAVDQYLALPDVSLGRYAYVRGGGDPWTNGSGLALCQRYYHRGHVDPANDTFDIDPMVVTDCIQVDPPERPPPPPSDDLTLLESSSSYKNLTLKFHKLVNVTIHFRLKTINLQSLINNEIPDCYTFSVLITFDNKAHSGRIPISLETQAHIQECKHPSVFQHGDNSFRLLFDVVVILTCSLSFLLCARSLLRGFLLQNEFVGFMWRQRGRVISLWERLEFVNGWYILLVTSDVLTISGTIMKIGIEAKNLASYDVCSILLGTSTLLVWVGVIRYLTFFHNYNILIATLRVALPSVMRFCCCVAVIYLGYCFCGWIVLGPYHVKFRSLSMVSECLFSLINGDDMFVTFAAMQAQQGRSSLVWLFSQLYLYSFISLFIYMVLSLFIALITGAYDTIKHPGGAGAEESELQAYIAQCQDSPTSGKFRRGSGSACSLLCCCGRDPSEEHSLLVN
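Calcium fluorescence on an FDSS kinetic reader gave the read-out. Tet-induced TRPML1-DL cells were plated overnight, dye-loaded (Ca8 with quencher, 45-90 min, room temperature, dark), then read 110 s after compound addition, and again 110 s after 4uM final 54-4 (EC80).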
Six1-Eya2 blk: qHTS Assay for Inhibitors of the Six1/Eya2 Interaction; Homeobox protein SIX1 (Homo sapiens) + Protein phosphatase EYA2 (Homo sapiens), …; AlphaScreen GST-Six1/His-Eya2 binding, biochemical; stronger effect = lower value; control for the full effect not named in the record; activity change, % (concentration not given with the values); 0.56% of 360,000 active; in the data active = activity change below about -65%; inconclusive = about -30% to -65%; inactive = above about -30%; further: on the % scale 0 is the no-effect control and ±100 the full control effect
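Six1/Eya2 binding was read as AlphaScreen signal after compounds were pinned into GST-Six1 plus His-tagged Eya2 (5X stock 250/500 nM) in pH 8.0 Tris/NaCl/TCEP buffer, beads added, then incubated 1 h, 37 C, dark.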
CtBP-E1A inh: qHTS Assay for Inhibitors of the CtBP/E1A Interaction; activity change, % (no concentration beside the values); CtBP / adenovirus E1A interaction (AlphaScreen); AlphaScreen GST-E1A/His-CtBP binding, 1536-well; stronger effect = lower value; control for the full effect not named in the record; 0.49% of 340,000 active; in the data active means activity change below about -65%; inconclusive means about -30% to -65%; inactive means above about -30%; further: on the % scale 0 is the no-effect control and ±100 the full control effect; compound concentration not given in the record
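GST-E1A and His-tagged CtBP (125 nM each as 5X stock) were preincubated with pin-transferred compound for 2 h at 37 °C in the dark, then glutathione donor and nickel acceptor beads were added for 1 h before AlphaScreen reading.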
D2 potentiator: Beta-Arrestin HTS for Positive Allosteric Modulators of the Human D2 Dopamine Receptor: Potentiators; D(2) dopamine receptor (Homo sapiens), P14416; DiscoveRx D2 beta-arrestin cells, luminescence, 90 min; 100% = 57 uM dopamine signal; potentiation, % (test concentration not listed); 0.23% of 360,000 active; AID 624464, 2012; active = potentiation of 50% or more; inconclusive = 30% to 50%; inactive = 30% or less;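 further: compound concentration not given in the record; tested on top of an EC20 dose of dopamine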
Target sequence (P14416 whole entry, looked up): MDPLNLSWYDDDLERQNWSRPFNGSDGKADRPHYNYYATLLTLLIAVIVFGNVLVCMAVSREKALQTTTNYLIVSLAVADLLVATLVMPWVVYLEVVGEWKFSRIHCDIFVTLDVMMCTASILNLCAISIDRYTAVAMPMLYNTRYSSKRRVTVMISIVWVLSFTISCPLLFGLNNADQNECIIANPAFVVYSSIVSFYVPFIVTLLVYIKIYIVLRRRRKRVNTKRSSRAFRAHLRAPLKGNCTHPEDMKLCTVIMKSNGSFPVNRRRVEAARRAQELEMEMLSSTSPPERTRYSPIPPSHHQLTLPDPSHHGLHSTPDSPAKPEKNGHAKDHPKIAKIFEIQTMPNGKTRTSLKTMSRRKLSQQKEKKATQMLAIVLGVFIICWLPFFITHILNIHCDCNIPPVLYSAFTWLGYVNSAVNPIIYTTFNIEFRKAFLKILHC
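D2 cells co-treated with compound plus 50 nM dopamine (EC20) for 90 min at 37 deg C to detect potentiation. Beta-arrestin recruitment was read as enzyme-fragment luminescence after 1 h at ambient temperature. Full response was set by 57 uM dopamine.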
D2 ag: Beta-Arrestin HTS for Positive Allosteric Modulators of the Human D2 Dopamine Receptor: Agonists; D(2) dopamine receptor (Homo sapiens), P14416; DiscoveRx PathHunter D2 beta-arrestin, luminescence, 90 min; 100% = 57 uM dopamine signal; activation, % (no concentration beside the values); 0.084% of 360,000 active; in the data active = activation above about 40%; inconclusive = about 15% to 40%; inactive = below about 15%; further: compound concentration not given in the record; the text of the record calls up to 30% inactive
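Agonist mode: compounds alone added to overnight-plated D2 PathHunter cells for 90 min at 37 C, with 57 uM final dopamine (EC100) defining full response. Beta-arrestin recruitment detected by chemiluminescent reagent, read after 1 h at ambient temperature.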
PINK1 modulator: A Quantitative High throughput Screen to Identify Chemical Modulators of PINK1 Expression | PINK1 immunofluorescence, high-content cytometry, 24 h | Potency, µM (titrated, usually from 76.6 µM), inactives show at the top dose activation (PINK1 increase), actives largely listed as activators | 0.2% of 410,000 active | AID 624263, 2012; active = well fitted activation curve with a large enough effect; inconclusive = small, poorly fitted or top-dose-only effect; inactive = flat fitted curve, though single readings scatter; cell line not stated here;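 further: potency means the concentration at half of the fitted maximal effect; % of control where 0% means no effect; nearly all actives have a fitted effect of over 65% in size; a mitochondrial uncoupler was the plate control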
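Decision-based qHTS: stable cells, 24 h exposure to five compound concentrations, CCCP as control. Fixed cells stained for PINK1 plus nuclear, mitochondrial and cell markers, cytometer read.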
An asterisk follows results filed as active; ? = inconclusive; . = no result given; [ ] = another dose, or the depositor's remark.

SMILES | TRPML1 agonist | Six1-Eya2 blk | CtBP-E1A inh | D2 potentiator | D2 ag | PINK1 modulator
CC(=O)c1ccccc1OCC(O)CN1CCN(c2ccccn2)CC1 (configuration not stated) | 0.4 | 6 | 0 | -6 | 11 | -0.8%
CC(=O)c1c(C)n(-c2cccc(Cl)c2)c2ccc(O)cc12 | 1.1 | -5 | -6 | 9 | 1.9 | 0.3%
COc1ccccc1CNC(=O)C(=O)NCC1OCCCN1S(=O)(=O)c1cccs1 (configuration not stated) | 0.2 | 3 | 1 | -8 | -2.1 | 0.0%
CCC(=O)c1ccc(OC(=O)C2CCN(C3=NS(=O)(=O)c4ccccc43)CC2)cc1 | -0.3 | ? | -23 | -4 | 0.6 | 1.4%
COc1ccc(S(=O)(=O)N(C)C[C@@H]2Oc3ccc(NS(C)(=O)=O)cc3C(=O)N([C@@H](C)CO)C[C@H]2C)cc1 | 1.1 | 8 | 0 | -10 | -1.3 | 0.2%
Cc1cc(C)n(-c2ccc3nnc(C)n3n2)n1 | -0.2 | -13 | -2 | -4 | -8.3 | 0.0%
CC(C)(C)C(=O)Nc1ccnn1C1CCN(C(=O)c2ccc(Cl)cc2F)CC1 | 0.2 | -5 | -12 | -10 | -0.9 | -1.1%
Cc1[nH]c2ccccc2c1/C=C/c1cc[n+](C)cc1 | 6.1 | -2 | -3 | -27 | -4.0 | ?
C/C(=N\NC(=O)COc1ccc([N+](=O)[O-])cc1)c1ccco1 | -0.5 | 0 | . | -1 | -3.0 | 0.4%
CC(C)(C)NS(=O)(=O)c1ccc(C(=O)Nc2ccc3c(c2)OCO3)cc1 | 0.5 | -22 | -4 | 0 | 6.5 | -1.7%
COc1ccc(N(CC(=O)Nc2ccc(Cc3ccncc3)cc2)S(=O)(=O)c2ccccc2)cc1 | 0.4 | -9 | -8 | -7 | 2.8 | 3.1%
COc1ccc(NC(=O)CSc2nnc(CNc3ccc(C)cc3)n2C)cc1 | -0.8 | -3 | -2 | -6 | -2.6 | 0.0%
CCOC(=O)n1cnc2nc(N)nc(SC)c21 | 0.5 | -13 | 7 | 3 | -1.9 | 1.7%
Cc1coc2c(C)c3oc(=O)c(CCC(=O)NCc4ccccn4)c(C)c3cc12 | . | -15 | -8 | -24 | 0.9 | 1.3%
O=C(Nc1ccc2nc(-c3ccco3)c(-c3ccco3)nc2c1)N1CCN(c2ccccn2)CC1 | 1.1 | ? | 15 | ? | 4.3 | 1.3%
Clc1ccc(C2=NOC(c3nnc(-c4ccccc4)o3)C2)cc1 (configuration not stated) | 3.6 | 0 | 7 | -4 | -0.3 | 2.3%
CSC1=N/C(=C\c2c(F)cccc2Cl)C(=O)S1 | -0.2 | 6 | -1 | -5 | -2.5 | 5.7%
O=C(/C=C1\NC2(CCCC2)Cc2ccccc21)C(=O)N/N=C/c1ccc(O)c(O)c1 | 2.5 | -21 | -14 | ? | -3.1 | -3.4%
COc1ccc(OC(=O)COc2cc(C)ccc2C)cc1 | -1.0 | 11 | 8 | 1 | 1.9 | -0.2%
CCOC(=O)CCc1c(C)c2ccc(OC3CCCCC3=O)c(C)c2oc1=O (configuration not stated) | 1.1 | 4 | . | -1 | 5.0 | 0.6%
Cc1oc(-c2ccccc2)cc1C(=O)Nc1cccc2ccccc12 | 1.6 | -4 | -2 | 0 | -3.5 | 4.3%
O=C(Nc1ccc(F)cc1)C(c1ccccc1)N1CCN(CC(=O)N2CCCC2)CC1 (configuration not stated) | 1.3 | 0 | -22 | -1 | -1.2 | 1.3%
Cc1ccc(NCCC#N)cc1C | -0.3 | 27 | 2 | -4 | 1.5 | 1.0%
O=c1[nH]snc1-c1c(Cl)cccc1Cl | . | 9 | 9 | -26 | -4.0 | -0.5%
CCc1ccc(-c2nn(Cc3ccccc3)cc2C(=O)NCC2CCCO2)cc1 (configuration not stated) | -0.5 | 0 | 0 | -1 | 0.0 | 1.8%
CC(C)CCn1c(SCC(=O)Nc2ccccc2C(F)(F)F)nc2nccnc2c1=O | 0.8 | 4 | -1 | 0 | -0.9 | -0.5%
Cc1cccc(N2CCN(C(=O)Cc3ccc(-n4c(=O)[nH]c5ccsc5c4=O)cc3)CC2)c1C | -0.4 | -9 | -3 | 19 | 0.8 | -1.0%
CSc1nc2ccc(NS(=O)(=O)c3ccc4c(c3)OCCO4)cc2s1 | 0.3 | -6 | -3 | -6 | 1.1 | -2.1%
O=C(CSc1ncnc2c1oc1ccccc12)Nc1nc2ccccc2s1 | -0.2 | 124 | 80 | -6 | -1.1 | 4.5%
COc1ccc(N2CCN(S(=O)(=O)c3cccc4cccnc34)CC2)cc1 | -0.7 | -14 | -11 | -6 | -4.8 | 0.2%
O=C(CCc1nc(-c2ccc(Cl)cc2)no1)NCC1CCCO1 (configuration not stated) | 0.3 | 4 | 0 | -3 | 1.8 | -0.1%
S=c1nc(-c2ccccc2)n(CCCn2ccnc2)c2c1CCCC2 | -1.1 | -11 | -2 | -12 | -4.1 | 0.6%
Cc1ccccc1C(=O)NCCNC(=O)c1ccco1 | 0.8 | 2 | 3 | 5 | -2.1 | 0.9%
CC(C)CN(C(=O)Cn1c(=O)cnc2ccccc21)C1CCS(=O)(=O)C1 (configuration not stated) | -0.4 | -4 | 3 | 3 | -2.9 | -1.6%
Cc1ccc(-c2nnn(CC(=O)Nc3cccc4c3CCCC4)n2)o1 | 1.7 | -1 | -5 | 4 | 1.3 | 2.0%
Cc1ccc(-n2c(Cc3cccn3C)nnc2SCC(=O)NC2CCCCC2)cc1 | 1.1 | -16 | -10 | -7 | -3.4 | 4.3%[38.3 µM]
COc1cc(CCC(=O)OCC(=O)Nc2ccccc2F)cc(OC)c1OC | -0.4 | -3 | 4 | -6 | -2.7 | -2.1%
COc1ccc(CCNS(=O)(=O)c2c(C)nc3scc(C)n3c2=O)cc1OC | -0.1 | -1 | 3 | -3 | -4.5 | -0.7%
Cc1cc(S(=O)(=O)N2CCOCC2)ccc1OCC(=O)Nc1cccc(C(F)(F)F)c1 | -0.4 | -1 | 5 | -4 | -4.1 | 17%
CC(Oc1cc2oc(=O)c3c(c2cc1Cl)CCCC3)C(=O)NCC1CCC(C(=O)O)CC1 (configuration not stated) | 0.5 | -6 | -2 | -2 | 3.3 | 1.5%
Nc1c(C(=O)c2ccc(Cl)cc2)sc2nc3c(cc12)CCC3 | -0.4 | -6 | -1 | -9 | -2.3 | ?
CC(C)c1ccc(N(C)C(=O)Cc2c(C(=O)O)n(C)c3ccccc23)cc1 | 2.1 | 1 | . | -14 | 1.9 | 0.9%
CCNC(=O)C(Cc1ccccc1)NC(=O)OCc1ccccc1 (configuration not stated) | -0.7 | 0 | 7 | 1 | 2.0 | 0.2%
COc1cc(/C=C2/SC(=S)N(CCC(=O)Nc3ccccc3)C2=O)cc(OC)c1OC | 5.7 | -11 | -7 | -12 | -0.8 | 0.5%
COc1ccc(-c2c(C)oc3c(CN4CCOCC4)c(O)ccc3c2=O)cc1OC | 2.0 | -14 | -10 | -7 | 7.1 | -1.5%
O=C(CSc1nc2ccccc2s1)Nc1ccc(Cl)c(S(=O)(=O)N2CCOCC2)c1 | -0.4 | -5 | -13 | 1 | 5.7 | 1.2%
O=C(N/C(=C\c1ccco1)C(=O)N1CCOCC1)c1ccc([N+](=O)[O-])cc1 | 0.7 | 1 | -2 | -3 | -3.3 | 0.6%
Cc1ccc(S(=O)(=O)Nc2cc(C(=O)NCCN(C)C)ccc2N2CCCCC2)cc1 | -0.2 | -2 | -6 | -37 | -1.1 | 2.0%
Cc1cc(NC(=O)C2CC=CCC2C(=O)O)no1 (configuration not stated) | 0.0 | -2 | 6 | 5 | -3.2 | -0.2%
CC(Cc1cccs1)NC(=O)Nc1ccc([N+](=O)[O-])cc1 (configuration not stated) | 1.2 | -9 | . | -19 | -5.4 | ?
COC(=O)c1ccc(-c2nc(-c3ccc(Br)o3)no2)cc1 | -0.8 | 7 | 6 | -8 | -5.6 | 1.5%
COc1ccc(NC(=S)N2CCCC2)c(OC)c1 | 0.4 | -2 | -22 | -2 | 2.5 | -1.0%
CC(C)S(=O)(=O)c1csc(NC(=O)Nc2cccc([N+](=O)[O-])c2)c1Cl | 0.3 | 2 | . | -21 | 4.7 | ?
CC(C)N(C(=S)Nc1ccc(S(=O)(=O)N2CCOCC2)cc1)c1ccccc1 | -0.2 | 9 | 0 | -4 | -2.2 | 2.1%
O=C(COC(=O)c1ccc([N+](=O)[O-])o1)Nc1ncc(Cl)cc1Cl | -0.5 | -18 | -8 | 10 | 5.9 | -5.6%
Cc1ccc(-c2nc(CC(=O)Nc3cccc(S(=O)(=O)NC4=NCCC4)c3)cs2)cc1 | 3.7 | -12 | -14 | 3 | ? | 1.5%
COc1ccc(C)cc1S(=O)(=O)N(CC(=O)Nc1cccc([N+](=O)[O-])c1)c1ccc(C)cc1 | -0.2 | -13 | -1 | -7 | -3.7 | 0.1%
C=CCOc1ccc(C(=O)N(Cc2ccc(N(C)C)cc2)C2CCS(=O)(=O)C2)cc1 (configuration not stated) | -0.3 | -14 | -5 | 1 | -1.2 | -0.1%
COc1ccccc1CCC(=O)NNC(=O)c1ccc(Br)cc1 | 2.5 | 1 | 3 | -4 | -1.7 | 11%

A different layout for 2 compounds above.
Each structure is followed by: TRPML1 agonist, Six1-Eya2 blk, CtBP-E1A inh, D2 potentiator, D2 ag, PINK1 modulator
- CCc1ccc(-c2nn(Cc3ccccc3)cc2C(=O)NCC2CCCO2)cc1 (configuration not stated)
→ -0.5, 0, 0, -1, 0.0, 1.8%
- Cc1ccc(S(=O)(=O)Nc2cc(C(=O)NCCN(C)C)ccc2N2CCCCC2)cc1
→ -0.2, -2, -6, -37, -1.1, 2.0%

Some entries already given, reduced to CtBP-E1A inh, PINK1 modulator and Six1-Eya2 blk.
| Structure | CtBP-E1A inh | PINK1 modulator | Six1-Eya2 blk |
| --- | --- | --- | --- |
| COc1ccc(-c2c(C)oc3c(CN4CCOCC4)c(O)ccc3c2=O)cc1OC | -10 | -1.5% | -14 |
| O=C(CSc1nc2ccccc2s1)Nc1ccc(Cl)c(S(=O)(=O)N2CCOCC2)c1 | -13 | 1.2% | -5 |
| O=C(N/C(=C\c1ccco1)C(=O)N1CCOCC1)c1ccc([N+](=O)[O-])cc1 | -2 | 0.6% | 1 |
| Cc1ccc(S(=O)(=O)Nc2cc(C(=O)NCCN(C)C)ccc2N2CCCCC2)cc1 | -6 | 2.0% | -2 |
| Cc1cc(NC(=O)C2CC=CCC2C(=O)O)no1 (configuration not stated) | 6 | -0.2% | -2 |

High-throughput results as filed in PubChem.
